# Sa helicase inh – inhibitors of S. aureus replicative helicase, primary screen, biochemical, fluorescence unwinding readout. replicative DNA helicase (DnaC/DnaB), Staphylococcus aureus. purified S. aureus helicase, fluorescence unwinding assay; about half of the hits fall short of the stated cut. inhibition, %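 (tested at about 80 µM)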. 120,000 compounds, 0.05% hits;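 active = both duplicates at 50% or more, or one of them with a favoured structure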;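 also: 0% = mean of negative control wells and 100% = mean of positive control wells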
# MgrA-DNA mod – S. aureus MgrA activity modulators, primary screen, biochemical, S. aureus Newman, fluorescence polarization. MgrA-DNA binding. inhibition, %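 (about 10 µg/mL by stock and volumes)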. 84,000 compounds, 0.13% hits. AID 602314, 2012;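 active = above 50% in either of two replicates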;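 also: 0% = protein plus DNA without compound and 100% = DNA alone without protein; higher means less MgrA bound to DNA so lower polarization; one replicate is shown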
# * hit, by the source's call; nt = not tested or not shown.
# Every second line gives: Sa helicase inh, MgrA-DNA mod
Cc1nc2nncn2c(NCCC(C)C)c1C
→ -22, nt
O=C1N/C(=N\c2ccccn2)SC1Cc1ccc(Br)cc1 (stereo unspecified)
→ nt, -0.2
CNS(=O)(=O)c1ccc(Cl)cc1
→ -17, nt
O=C(O)c1ccc(-c2nc3ccccc3s2)cc1
→ 11, -0.3
Cc1ccccc1C(=O)c1ccccc1C(=O)O
→ nt, 2.3
COc1ccc(C2N(C(C)=O)CCCN2S(=O)(=O)c2ccc(C)cc2)cc1 (stereo unspecified)
→ 24, nt
COc1ccc(CCN2C(=O)CC(C(=O)Nc3ccccc3)SC2=Nc2ccccc2)cc1OC (stereo unspecified)
→ nt, 0.4
Cc1sc2nc[nH]c(=S)c2c1-c1ccccc1
→ 11, 7.4
O=C(NCc1nc(-c2ccc(C(F)(F)F)cc2)no1)Nc1ccc(F)cc1F
→ nt, 1.7
CCOC(=O)Cc1csc(NC(=O)Cc2ccccc2)n1
→ -24, nt
CCC(=O)N1CCc2cc(S(=O)(=O)CCC(=O)NCc3ccccc3)ccc21
→ 13, nt
C#CCn1c(=NC(=O)c2ccc(N3C(=O)CCC3=O)cc2)sc2cc(Br)ccc21
→ -5, nt
O=C1CNC(=S)N1Cc1ccccc1
→ nt, 0.3
CCOCCOC(=O)C1=C(C)NC2=C(C(=O)CC(c3ccccc3)C2)C1c1ccc(OC)c(OC)c1 (stereo unspecified)
→ nt, 1.0
O=C1C2CCCCC2=NN1c1ccccc1 (stereo unspecified)
→ 3, -0.9
O=C1CC(C(=O)NCc2ccc(F)cc2)C2=C(CCCC2=O)N1 (stereo unspecified)
→ 1, -1.9
CSc1sc2ccccc2[n+]1C
→ -9, -9.7
Cc1[nH]ccc(=O)c1OCc1ccc(Cl)cc1
→ nt, 0.4
COc1ccc(NC(=O)N=S2CCN(S(=O)(=O)c3ccc(Cl)cc3)CC2)cc1
→ 5, nt
O=c1c(-c2ccccc2)c(O)nc2sc3ccccc3n12
→ nt, -2.6

# Entries of single compounds from above. Order of values: Sa helicase inh	MgrA-DNA mod
# O=C1C2CCCCC2=NN1c1ccccc1 (stereo unspecified) is listed with 3	-0.9
# Cc1[nH]ccc(=O)c1OCc1ccc(Cl)cc1 is listed with nt	0.4
# CCOCCOC(=O)C1=C(C)NC2=C(C(=O)CC(c3ccccc3)C2)C1c1ccc(OC)c(OC)c1 (stereo unspecified) is listed with nt	1.0
# O=c1c(-c2ccccc2)c(O)nc2sc3ccccc3n12 is listed with nt	-2.6
# COc1ccc(NC(=O)N=S2CCN(S(=O)(=O)c3ccc(Cl)cc3)CC2)cc1 is listed with 5	nt

# The list goes on:
# Every second line gives: Sa helicase inh, MgrA-DNA mod
CC1CCCCN1C(=O)C1COc2ccccc2O1 (stereo unspecified)
→ -1, -0.2
O=S(=O)(NCc1ccncc1)c1ccc(C2CCCCC2)cc1
→ 7, -3.6
CCN1CCN(C(C)C(=O)NCc2ccc(OC)cc2)CC1 (stereo unspecified)
→ 5, -1.8
C=CCN=C(SC)N1CCN(C(=NCC=C)SC)CC1
→ 9, -1.4
COCc1[nH]nc2c1C(c1ccccc1C(F)(F)F)C(C#N)=C(N)O2 (stereo unspecified)
→ 1, 0.3
Cn1c(/N=C(\C#N)c2nc3ccccc3[nH]2)c(N)c(=O)n(C)c1=O
→ -17, nt
CC(OC(=O)Cc1ccsc1)C(=O)Nc1ccc(C(N)=O)cc1 (stereo unspecified)
→ -1, nt
Cc1ccc(Cn2c(=N)n(CC(=O)c3ccccc3)c3ccccc32)cc1
→ 4, -8.4
Cn1nc(C(=O)NCCSc2n[nH]c(=O)[nH]c2=O)c2ccccc2c1=O
→ -6, nt
CC(Nc1ccccc1)C(=O)Nc1ccc(F)cc1 (stereo unspecified)
→ 10, nt
CCOC(=O)CSc1nc2ccccc2n1C(=O)Nc1cccc(Cl)c1
→ 11, -0.9
Cc1noc(/C=C/N(C)C)c1S(=O)(=O)N1CCc2ccccc21
→ 7, 0.5
O=S(=O)(c1ccc(-c2cnco2)cc1)N(Cc1ccccn1)Cc1ccccn1
→ -12, nt
CCN(Cc1ccccc1)C(=O)CS(=O)(=O)c1ccccc1
→ 3, -1.5
CCOc1cc(C2C(C(=O)OCc3ccc(OC)cc3)=C(C)NC3=C2C(=O)CCC3)cc(Br)c1O (stereo unspecified)
→ nt, -1.9
Cc1ccc(NC(=O)CCc2c(C)nc3c4c(C)cc(C)nc4nn3c2C)cc1
→ 4, 3.0
Cc1sc(NC(=O)/C=C/c2ccco2)c(C(N)=O)c1C
→ 5, nt
Cc1ccc(-n2c(=O)c3sccc3n(CC(=O)NCC3CCCO3)c2=O)cc1F (stereo unspecified)
→ 7, 0.8
CN(C)Cc1nc2ccccc2c(=O)n1CC#N
→ -13, nt
COc1ccc(/C=C/C(=O)CC(=O)c2ccccc2O)cc1
→ -17, -1.5
O=C(COC(=O)c1cnc(Cl)c(Cl)c1)NC1CC1
→ 16, -1.5
COc1ccccc1NC(=O)c1ccccc1C(=O)O
→ 11, -3.6
COC(=O)c1ccccc1NC(=O)Cn1c(SC)c(F)cnc1=O
→ 0, 1.3
N#CC1=C(N)OC2=C(CC/C2=C/c2ccccc2)C1c1ccccc1 (stereo unspecified)
→ -110, nt
Cc1cccc(NC(=O)Cn2c(O)c(N=N)c3ccccc32)c1
→ -16, -0.9
CN(C)/C=N/C(=S)NC1CC2C=CC1C2 (stereo unspecified)
→ nt, -0.5
CSc1nc(N)n(-c2ccccc2)n1
→ nt, -0.9
Cc1cc(C(=O)OCC(=O)NC2CCCC(C)C2C)c(C)o1 (stereo unspecified)
→ -16, 1.4
CCC(C(=O)N1c2ccccc2Sc2ccc(C(F)(F)F)cc21)N1C(=O)c2ccccc2C1=O (stereo unspecified)
→ -18, -1.8
CN(C(=O)Nc1ccccc1)C12CC3CC(CC(C3)C1)C2
→ 12, 0.8
COCc1cc(=O)[nH]c(SCC(=O)Nc2cc(C)cc(C)c2)n1
→ 20, nt
Cc1c(C(=O)O)oc2ccc(S(=O)(=O)NCCC(C)C)cc12
→ 10, -1.8
Cc1ccc(NC(=O)C/C(N)=N/OCc2ccc(C#N)cc2)cc1
→ 1, nt
CC1(C)Oc2ccccc2OC1(O)c1ccc2ccccc2n1 (stereo unspecified)
→ 3, nt
CNC(=S)N/N=C/c1ccc(C(C)C)cc1
→ 14, 7.5
COC(=O)c1cc2c(s1)CCC2
→ 6, -0.7
O=C(Cc1cccs1)Nc1nnc(C2CC2)s1
→ -9, nt
Cc1ccnc(Nc2nc3ccccc3s2)n1
→ -5, -2.2
O=C(CC1C(=O)N(c2ccccc2)C(=O)N1Cc1ccco1)Nc1ccccc1 (stereo unspecified)
→ 40, nt
O=C(Nc1nc2c(Br)cc(Br)cc2c(=O)s1)C1CCC1
→ nt, 1.3
Fc1cccc(Nc2n[nH]c(=S)s2)c1
→ nt, 0.0
N#Cc1ccc(Oc2ccc(Cl)cc2Cl)cc1
→ nt, 0.0
CC1(C)NCCNC1=O
→ -3, -1.1
FC(F)(F)c1cnc(NNC(=S)NCC2CCCO2)c(Cl)c1 (stereo unspecified)
→ 3, nt
CCOC(=O)C(C#N)C(c1cccnc1)c1[nH]c(C)nc1O (stereo unspecified)
→ 13, 1.0
O=C1CC2(CCCC2)C(=O)N1CCNc1nccc(C(F)(F)F)n1
→ nt, 3.4
COC(=O)C1=C(Nc2ccc(C)cc2)CC(C)(O)C(C(=O)OC)C1c1ccc(Br)cc1 (stereo unspecified)
→ 14, -3.6
COc1ccc(S(=O)(=O)N2CCCCCC2)cc1C(=O)O
→ -2, nt
S=C(Nc1cc(Cl)ccc1Cl)N(CCc1ccccc1)CCc1ccccn1
→ nt, 0.3
CS(=O)(=O)N1CCC(Cc2ccccc2)CC1
→ 14, 2.0

# (continued)
# Every second line gives: Sa helicase inh, MgrA-DNA mod
CCOC(=O)N1CCN(CC(O)COc2ccccc2C(C)C)CC1 (stereo unspecified)
→ 6, nt
Cc1ccc(C(=O)Nc2ccc3oc(-c4cccnc4)nc3c2)cc1
→ 9, 0.0
CC(C)N(C(=O)CN1C(=O)c2ccccc2S1(=O)=O)c1ccccc1
→ -28, 3.5
c1cncc(Cn2cccc2)c1
→ nt, -1.2
O=C(O)C(Cc1ccccc1)NS(=O)(=O)c1ccc2[nH]c(=O)c(=O)[nH]c2c1 (stereo unspecified)
→ 15, -0.6
Cc1ccc(O)c(NC(=O)c2ccc3c(c2)C(=O)N(Cc2ccco2)C3=O)c1
→ 13, 1.2
COCC(C)NCc1ccc(SC)cc1 (stereo unspecified)
→ -1, -1.6
COC(=O)c1c(F)c(F)c(Oc2ccc(C)cc2)c(F)c1N1CCCC1
→ -18, nt
COc1ccc(NC(=O)C(c2ccccc2)N(Cc2ccco2)C(=O)Cc2cccs2)cc1 (stereo unspecified)
→ -7, nt
CSc1nnc(-c2ccc(Cl)cc2Cl)n1Cc1ccco1
→ nt, -0.8
COc1cccc(-c2cc(C(=O)N3CCCC3)no2)c1
→ 16, nt
CS(=O)(=O)N1CCC(C(=O)NCCN2CCCCCC2)CC1
→ 8, -2.1
COc1ccc2c(c1)sc1nc(-c3ccc(C)o3)c(NC3CCCCC3)n12
→ -11, nt
COC(=O)c1cc(=O)nc2sccn12
→ 6, nt
CS(=O)(=O)C1=NN2C(=N)/C(=C\c3ccco3)C(=O)N=C2S1
→ 8, 0.8
O=[N+]([O-])c1ccc(Sc2ccccc2)c(Cl)c1
→ nt, -0.4
CCCS(=O)(=O)Nc1cccc(-c2cn3c(n2)SCC3)c1
→ 7, nt
O=C(NC1Cc2ccccc2C1)C1CC1
→ nt, -0.7
Nn1c(Cc2ccccc2F)nnc1SCC(=O)N1CCc2ccccc2C1
→ -1, nt
Cc1nn(-c2ccccc2)c2c1C(C(F)(F)F)(C(F)(F)F)N=C(N(C)C)O2
→ -16, -0.8
O=C(c1ccccc1)N1CCN(C(=O)C2CCCCN2S(=O)(=O)c2ccccc2)CC1 (stereo unspecified)
→ 8, nt
CCCC(CC(=O)O)CC(=O)O
→ -14, nt
C=CCN1C(=O)/C(=C2\SC(=S)N(CCC)C2=O)c2ccccc21
→ 3, 1.4
O=C(Cn1cnc2ccccc2c1=O)Nc1cccc(Cl)c1
→ 12, -2.2
O=C(c1cc2ccccc2oc1=O)N1CCCC1
→ -2, 0.1
COc1ccc2c(C(F)(F)F)cc(=O)oc2c1
→ -18, nt
N#CC1(c2ccc(Cl)cc2)c2ccccc2NN1c1ccccc1 (stereo unspecified)
→ 8, -2.9
COc1ccc(-n2ncc3c(=O)n(CC(=O)N4CC(C)CC(C)C4)cnc32)cc1 (stereo unspecified)
→ 3, -2.8
COc1cc2ccccc2cc1C(=O)N1CCCN(C)c2nc3ccccc3nc21
→ 9, nt
CCOC(=O)c1cnn(-c2ccc(Cl)cc2)c1C(F)(F)F
→ nt, -4.4
O=C(O)C(O)C(O)c1nc2cc3ccccc3cc2[nH]1 (stereo unspecified)
→ 13, -3.3
O=C(O)C1CCN(C(=O)C(F)(F)F)CC1
→ nt, -1.5
O=c1c2ccccc2nc(SCc2ccon2)n1Cc1ccccc1
→ -7, nt
COC(=O)c1ccc(C)c(NC(=O)c2ccncc2)c1
→ nt, 4.0
Cc1nn(C(=O)c2cc(C)n(-c3ccccc3)n2)c(C)c1Br
→ nt, -0.8
CCOC(=O)c1noc2ncnc(NC(C)C)c12
→ 3, nt
CCN(CCO)CCCC(C)Nc1ccnc2cc(Cl)ccc12 (stereo unspecified)
→ nt, 2.8
CCn1cc(C2=NOC(C(=O)N3CCCC3)C2)c(C)n1 (stereo unspecified)
→ 0, nt
Cc1cc(O)c(C=Nc2ccccc2C(F)(F)F)c(=O)o1
→ -24, nt
O=C(CSc1ncn[nH]1)N(C1CCCCC1)C1CCCCC1
→ 5, 2.9
COc1ccc(OC)c(S(=O)(=O)N2CCc3ccccc3C2)c1
→ -18, nt
CC(Sc1nc2cc(Cl)ccc2s1)C(N)=O (stereo unspecified)
→ 7, nt
CCc1nc2sc3c(c2c2nncn12)CCCC3
→ 8, nt
CC(C)(C)NC(=O)CSc1nc2ccccc2c(=O)[nH]1
→ 0, 3.8
COc1ccc(CCNC2=NCCS2)cc1
→ -15, 0.2
CC(C)c1ccc(S(=O)(=O)N2CCN(C(=O)c3ccco3)CC2)cc1
→ -2, 0.6
CCOC(=O)c1oc2ccccc2c1NC(=O)CN1CCOCC1
→ 3, 5.3
COc1ccc(CCN=C(N)Nc2nc(C)cc(C)n2)cc1
→ 26, -2.0
COc1cc(C#N)c2ccc3ccccc3c2c1
→ nt, 1.8
Cc1ccccc1NC(=S)N1CCC(NC(=O)C(C)(C)C)CC1
→ 12, 0.0

# Carrying on:
# Every second line gives: Sa helicase inh, MgrA-DNA mod
CC(C)C1Cc2c(sc3nc(SCC(=O)O)n(Cc4ccccc4)c(=O)c23)CO1 (stereo unspecified)
→ 8, nt
c1cc2c(cc1CNc1ccc(N3CCOCC3)cc1)OCO2
→ 8, 0.8
O=C(C1Cc2ccccc2CN1C(=O)c1ccccc1)N1CCN(c2ccccc2)CC1 (stereo unspecified)
→ 3, nt
COc1ccc(NS(=O)(=O)c2ccc(C(=O)N(C)C)s2)cc1
→ -18, nt
COc1ccc(-c2cc(-c3ccccc3)c(C#N)c(S(=O)Cc3ccccc3)n2)cc1 (stereo unspecified)
→ 6, 2.5
CNC(=O)c1cc2c(=O)c3ccccc3oc2nc1C(F)(F)F
→ nt, 4.0
O=C(O)c1nn(-c2ccc(Cl)cc2)ccc1=O
→ 3, nt
O=C(Cc1cccs1)Nc1ccc2nc3n(c(=O)c2c1)CCCCC3
→ 4, nt
Nc1cc(-c2ccc(Cl)cc2)nn1S(=O)(=O)c1ccccc1
→ -11, nt
Cc1nn(-c2ccccc2)c2[nH]c(=O)cc(C(F)(F)F)c12
→ -6, 1.5
CC(O)CNC(=O)C12CC3CC(CC(C3)C1)C2 (stereo unspecified)
→ 2, -1.6
Cc1ccc(OC(=O)C2c3ccccc3Oc3ccccc32)cc1C
→ 7, 1.2

# Not all compounds are listed (hit frequency here may not be typical).
